ugtP null kill = kills S. aureus RN4220 lacking UgtP | S. aureus RN4220 ugtP deletion, OD600 growth, 16 h; some inactives read as strong as hits | AID 1259309 | growth inhibition, % (test concentration not listed) | 330,000 compounds, 0.54% hits;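 active means z-score under -3 and OD600 up to 0.15 on both plates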;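 further: plate controls were untreated wells for no effect and antibiotic for full effect; wells of about 80 µL received 100 nL stock; the first replicate is given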
Mtb hypoxia inh = reduces hypoxia-regulated biosensor signal in M. tuberculosis | M. tuberculosis hypoxia-regulated fluorescent reporter, fluorescence | fluorescence inhibition, % (concentration not given with the values) | 300,000 compounds, 0.1% hits;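 active means 35 to 45% if threefold the growth effect, above 45% if 1.5-fold the growth effect; inactive means the rest, general growth blockers included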;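 further: wells of about 50 µL received 100 nL stock; 0% = vehicle wells and 100% = reference inhibitor wells; whole bacteria with a GFP reporter of the hypoxia response; strong numbers were not always called active; many hits fall short of the cut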
BJeLR lethal = BJeLR cell viability loss | AID 1554 | BJeLR (HRASV12) viability, CellTiter-Glo ATP luminescence, 48 h; reference of the scale not given here | inhibition, % (concentration not given with the values) | 300,000 compounds, 0.17% hits;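 active means replicate mean above 50%; inconclusive means above 50% but judged a plate artefact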;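 further: 50 nL library stock added to about 25 µL; numbers are from one replicate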
PrP 5UTR inh = inhibition of PrP 5' UTR reporter expression; cell-based PrP 5' UTR mRNA reporter, plate reader; inhibition, % (no concentration beside the values); 340,000 compounds, 0.35% hits;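 active means every replicate at 50% or more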;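 further: 0 = median of the neutral control wells; tested in H4 reporter cells; numbers are from one replicate; inactives centre near -14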
Sa RN4220 lethal = S. aureus RN4220 growth inhibition; inhibition, % (concentration not given with the values); 330,000 compounds, 0.33% hits; OD600, 16 h; AID 1259311;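 active means z-score of -3 or lower and OD600 up to 0.18 on both plates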;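 further: plate controls were untreated cells for no effect and reference antibiotic for full effect; stock transfer was 100 nL into about 80 µL; one replicate is shown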
Bead autofluor = counter-screen for toxin protease inhibitors: compound fluorescence. compound autofluorescence counterscreen, microsphere flow cytometry; hits give high values. fluorescence intensity (no concentration beside the values). 360,000 compounds, 3.1% hits. AID 624483;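 active means at least 3 SD above the mean of all compounds, about 16000 in these data; inconclusive means too few beads counted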;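 further: 100 nL of 1 mM stock went into each well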
Mtb hypoxia inh growth = second read-out of Mtb hypoxia inh, no call of its own (marks repeat the call); growth inhibition, %; measured here: M. tuberculosis growth (absorbance);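 0% = vehicle and 100% = reference antibiotic; read after six days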
* hit, by the source's call; ? = inconclusive; . = not tested or not shown.

SMILES | ugtP null kill | Mtb hypoxia inh | Mtb hypoxia inh growth | BJeLR lethal | PrP 5UTR inh | Sa RN4220 lethal | Bead autofluor
C/C(=N\N1CCCCCC1)c1c(O)n(-c2ccc(C)cc2)c(=O)[nH]c1=O | . | . | . | 1 | -1 | . | 2154
COc1ccccc1N1CCN(N=C/C=C/c2ccccc2[N+](=O)[O-])CC1 | 30 | -3 | 4 | . | . | 5.5 | .
CCOc1ccccc1N(CC(=O)Nc1ccc(S(=O)(=O)N2CCOCC2)cc1)S(C)(=O)=O | 3 | 10 | 0 | 0 | -27 | 4.7 | 3053
C/C(=N\NC(=O)C(N)=O)c1ccc2c(c1)OCCO2 | . | . | . | -14 | -20 | . | 4438
CCCCN1CNC(=S)N(CCc2ccccc2)C1 | 11 | -2 | 2 | -4 | -8 | 9.1 | 1982
Cc1ccc(NC(=O)CNCc2ccccc2)cc1Br | 5 | 4 | -4 | -2 | -3 | 2.3 | 4477
O=C(CSCCO)Nc1ccc(C2CCCCC2)cc1 | 2 | 3 | 9 | 7 | -27 | 3.6 | 6252
Cc1ccc(C(=O)N/C(=C\c2ccc(Cl)cc2)C(=O)NCCN2CCOCC2)cc1 | 3 | -8 | 8 | -3 | -7 | 1.3 | 3724
CN(c1ccccc1)S(=O)(=O)c1ccc(C(=O)Nc2nccs2)cc1 | 12 | 9 | 5 | 7 | -30 | 3.2 | 6315
CC1Oc2ccccc2N(CC(=O)NCC2CCCO2)C1=O (stereo unspecified) | 6 | 9 | 7 | -7 | -2 | 4.5 | 23344*
CN(C)CCC#CC(O)(c1ccccc1)c1ccccc1 | 1 | 14 | 0 | 2 | -14 | 3.6 | 2044
COC(=O)c1cccc(Cn2c(Cl)c(/C=N/NC(=O)c3ccccc3Cl)sc2=O)c1 | . | . | . | 2 | -24 | . | 8640
COC(=O)c1cc(Cl)c(NC(=O)c2ccc(C(C)(C)C)cc2)cc1OC | -30 | -2 | 9 | 6 | 0 | 1.6 | 10564
Cc1ccc(-n2c(-c3nn(C)cc3Cl)n[nH]c2=S)cc1 | 8 | 8 | -6 | -4 | -16 | 1.8 | 2156
O=C(/C(=N\O)n1cncn1)c1ccc(Cl)cc1Cl | . | . | . | 5 | -12 | . | 4957
O=C(Nc1cccc(Cl)c1)C1CC1c1ccccc1 (stereo unspecified) | 8 | 2 | 0 | -5 | -12 | 2.8 | 3821
CCOc1ccc(CCNC(=O)CN2C(=O)c3cccnc3Oc3ccc(Cl)cc32)cc1 | -2 | 0 | -1 | -2 | 0 | -1.6 | 5678
Cc1ccc(N2C(=O)CC(NNC(=O)Cc3ccc(F)cc3)C2=O)cc1Cl (stereo unspecified) | 6 | -4 | -12 | 4 | -18 | 1.9 | 5361
Cc1cc(Br)c(Oc2cc(NN3CCCCC3)c([N+](=O)[O-])cc2[N+](=O)[O-])c(Br)c1 | 1 | 18 | 2 | . | 3 | 3.6 | 3153
O=C(COC(=O)c1cc(Cl)nc2ccccc12)c1ccc(Cl)cc1 | -1 | 11 | 4 | -29 | 6 | 0.2 | 9901
O=C(CSCc1ccc([N+](=O)[O-])cc1)NN=Cc1ccncc1 | 5 | 9 | -1 | . | . | 0.4 | .
O=C(OCc1nc2ccccc2s1)C1CCN(S(=O)(=O)c2cccs2)CC1 | 9 | 11 | 10 | -7 | -48 | -1.3 | 4371
COc1ccc(C(CNC(=O)c2nn(-c3ccccc3)c(=O)c3ccccc23)N2CCOCC2)cc1 (stereo unspecified) | 11 | 5 | 4 | . | -5 | 6.9 | 4417
CCOP(=O)(O)c1ccccc1OCCCCCOc1ccccc1P(=O)(O)OCC | 0 | 8 | 5 | 1 | -21 | 0.6 | 9299
O=C(CCNc1n[nH]c(=O)[nH]c1=O)NN=Cc1ccc(C(F)(F)F)cc1 | -3 | -2 | 21 | . | . | 2.4 | .

Molecules listed so far containing two or more sulfur atoms:
SMILES | ugtP null kill | Mtb hypoxia inh | Mtb hypoxia inh growth | BJeLR lethal | PrP 5UTR inh | Sa RN4220 lethal | Bead autofluor
CCOc1ccccc1N(CC(=O)Nc1ccc(S(=O)(=O)N2CCOCC2)cc1)S(C)(=O)=O | 3 | 10 | 0 | 0 | -27 | 4.7 | 3053
CN(c1ccccc1)S(=O)(=O)c1ccc(C(=O)Nc2nccs2)cc1 | 12 | 9 | 5 | 7 | -30 | 3.2 | 6315
O=C(OCc1nc2ccccc2s1)C1CCN(S(=O)(=O)c2cccs2)CC1 | 9 | 11 | 10 | -7 | -48 | -1.3 | 4371

Remaining list, next part.
SMILES | ugtP null kill | Mtb hypoxia inh | Mtb hypoxia inh growth | BJeLR lethal | PrP 5UTR inh | Sa RN4220 lethal | Bead autofluor
Cc1cc(C)nc(Sc2ccc(/C=C(\C#N)C(N)=O)o2)n1 | 0 | -4 | -12 | 19 | -22 | -4.4 | 10787
O=c1sc2ccccc2n1Cc1ccccc1 | 2 | 1 | 1 | -8 | 0 | 3.7 | 2270
Cc1cccc(NC(=O)NNC(=O)COc2ccc([N+](=O)[O-])cc2)c1C | 1 | -5 | 1 | 10 | -14 | 1.3 | 6207
Cc1ccnc(NC(=O)CCNC(=O)c2ccccc2Cl)c1 | 6 | -2 | -2 | 9 | -28 | 1.5 | 4416
CC(=O)c1ccc(NC(=O)COC(=O)C2C3CC4OC(=O)C2C4C3)cc1 (stereo unspecified) | 1 | 11 | -5 | 4 | -21 | 0.4 | 3230
CCN(CC)S(=O)(=O)c1ccc(/C=C/C(=O)OCC(=O)NCc2ccc3c(c2)OCO3)cc1 | 3 | 15 | 1 | 3 | -34 | 5.3 | 3912
COc1ccc(CNC(=O)CN2C(=O)COc3ccc(S(=O)(=O)NC4CCCC4)cc32)cc1 | 7 | 1 | 2 | -3 | -8 | 2.2 | 5251
c1ccc2c(c1)c1ccccc1n2CN1CCOCC1 | -5 | 13 | 10 | -7 | -8 | -18 | 2887
Cn1c(C(=O)NC2CCCCC2)cc2c(=O)n(C)c3ccccc3c21 | 10 | -7 | 3 | -10 | -6 | 20 | 5614
COC(=O)c1sccc1NC(=O)Nc1ccc(F)cc1F | 1 | 7 | -4 | 0 | 1 | 0.4 | 4322
Cc1ccc(-n2nc(-c3ccc(OC(F)(F)F)cc3)cc2N)cc1C | -5 | 16 | -2 | -5 | . | -6.1 | .
O=S(=O)(c1ccc(Cl)s1)N1CCC2(CC1)OCCO2 | . | . | . | 6 | -15 | . | 4290
O=[N+]([O-])c1ccc(-c2csc(NN=C3CCCC3)n2)cc1 | 2 | -3 | 0 | . | -28 | 3.5 | 4436
CC(C)(C)[C@H]1C=C(C(=O)NCc2nc3ccccc3[nH]2)O[C@@H](OCc2ccc(CO)cc2)C1 | . | . | . | 16 | -1 | . | 4003
Cn1ncc(Cl)c1C(=O)Nc1ccc(Cl)cn1 | -2 | 4 | 6 | -10 | -59 | 1.6 | 8797
COc1ccccc1CNC(=O)c1cccs1 | -6 | 0 | 2 | -4 | -5 | -3.3 | 23731*
O=C1NC(=O)C(CCc2ccccc2)(c2ccccc2)N1 (stereo unspecified) | -2 | -8 | 3 | . | -24 | 1.4 | 3819
Cc1nc(SCC(=O)c2cc3ccccc3oc2=O)c(C#N)c(-c2cccs2)c1C(=O)Nc1ccccc1 | 10 | 5 | 4 | -2 | -41 | 14 | 4344
CC(=O)c1cccc(NC(=O)CN2C(=O)NC3(CCCCCCC3)C2=O)c1 | -7 | 1 | -3 | 0 | -11 | 1.2 | 11228
COCCOc1ccc(C(F)(F)F)cc1NC(=O)COC(=O)c1cc[n+]([O-])cc1 | -1 | 9 | 0 | -15 | -4 | -0.5 | 5604
COc1cccc(NC(=O)CN(C)C(=O)c2ccc(Cl)c(S(=O)(=O)N3CCCCCC3)c2)c1 | 2 | 5 | -4 | . | -18 | 4.5 | 4370
Cc1ccc(-c2cc([C@H]3[C@H]4C=CC[C@@H](C)[C@@H]4C(=O)N3Cc3ccccc3)ccc2F)cc1 | . | . | . | 5 | -14 | . | 3980
COCC1CCCCN1C(=O)c1ccc(OC)c(OC2CCN(C(C)C)CC2)c1 (stereo unspecified) | 7 | -2 | 4 | 13 | -23 | 1.9 | 5460
CCOC(=O)c1cc(C)sc1/N=C/C1C(=O)CCCC1=O | . | . | . | 5 | -16 | . | 8849
Cc1ccc(/C=N/N2CCN(c3ccncc3S(=O)(=O)N3CCCCC3)CC2)cc1 | . | . | . | 6 | -22 | . | 4687
Remaining list, next part
SMILES | ugtP null kill | Mtb hypoxia inh | Mtb hypoxia inh growth | BJeLR lethal | PrP 5UTR inh | Sa RN4220 lethal | Bead autofluor
Cc1cccc(NC(=O)CCCN2C(=S)NC(C)(C)CC2C)c1C (stereo unspecified) | 4 | 5 | -3 | 2 | -26 | 0.8 | 3278
CCOC(=O)C(C)CC(C)C(=O)N1CCOCCOCCN(C(=O)C(C)CC(C)C(=O)OCC)CCOCC1 (stereo unspecified) | 2 | 5 | 3 | -10 | -17 | 2.2 | 6634
COc1cccc(OC)c1CNC(=O)C1CCC(=O)N(CC2CCCCC2)C1 (stereo unspecified) | -1 | 6 | 4 | -1 | -11 | -1.9 | 6223
COc1ccc([N+](=O)[O-])cc1NC(=O)CCC(=O)c1cccs1 | . | . | . | -15 | 9 | . | 3124
CN1CCN(C(=O)c2ccc(Cl)c(S(=O)(=O)N3CCCCC3)c2)CC1 | 0 | 13 | 10 | 3 | -27 | 6.4 | 9912
O=C(O)CC(C(=O)Nc1cccc(C(F)(F)F)c1)C1CCCO1 (stereo unspecified) | -3 | 5 | 10 | -3 | -15 | 3.5 | 5837
Cc1c(C(=O)N2CCOCC2)sc(NC(=O)CCl)c1C#N | 3 | 19 | 23 | 0 | -8 | 3.3 | 3651
COc1ccc(/C=N/NC(=O)c2cc(-c3cccn3C)n[nH]2)cc1OC | . | . | . | -8 | -32 | . | 2220
NC(=O)CC(NC(=O)Cc1cccc2ccccc12)c1ccc(N2CCC(Br)CC2)c([N+](=O)[O-])c1 (stereo unspecified) | -20 | 1 | 9 | -5 | -29 | -5.9 | 4227
Cn1c(Cc2ccccc2)nnc1SCC(=O)Nc1ccc2c(c1)OCO2 | -1 | 8 | 4 | -2 | -32 | 1.6 | 7427
Nc1c(Cl)c(Cl)nc(C(=O)OCC(=O)NC2CCCCC2)c1Cl | 0 | 6 | -1 | 6 | -3 | 1.6 | 6394
COc1ccc(CCNC(=S)c2ccccc2)cc1OC | 5 | 4 | 2 | 8 | -33 | 1.7 | 3939
CC(O)[C@H]1CNC(=O)C(=O)N1CCc1cccc(F)c1 (stereo partly specified) | . | . | . | 9 | -12 | . | 4173
O=[N+]([O-])c1ccc(S(=O)(=O)NN=Cc2ccsc2)cc1 | -1 | 1 | -8 | . | . | 9.9 | .
CCN1C(=O)c2cccc3c(S(=O)(=O)N4CCCC4C(=O)O)ccc1c23 (stereo unspecified) | 7 | 6 | 5 | -8 | -27 | 2.3 | 4080
CN1CCN(C(=O)C2=C[C@@H](C3CCCCC3)C[C@@H](OCc3ccc(CO)cc3)O2)CC1 | . | . | . | 4 | -8 | . | 3423
O=C(Oc1ccc(-c2nccc(-c3ccccn3)n2)cc1)c1cccc(C(F)(F)F)c1 | -12 | . | . | -10 | -27 | -3.2 | 4694
O=C(CN1C(=O)NC2(CCc3ccccc32)C1=O)c1ccc(Cl)cc1 (stereo unspecified) | -5 | 7 | 7 | -5 | -11 | 5.4 | ?
CC1=CC(=O)C(C(C)C)=CC1=NC(=O)c1ccc(C)cc1 | 8 | 1 | -1 | -6 | -24 | 3.7 | 4051
CCCCC(CC(O)COCCC)C(=O)NN (stereo unspecified) | 4 | 3 | 2 | 6 | -23 | 0.3 | 2457
CC(=O)N1CCN(C(=O)c2cccc(S(=O)(=O)N3CCN(c4ccccc4)CC3)c2)CC1 | 2 | 12 | 6 | . | . | 2.9 | .
CCCCC#Cc1ccccc1CC(=O)Nc1ccccc1 | 1 | 13 | 2 | -13 | -14 | 4.2 | 3800
COc1ccccc1NCC(=O)N/N=C(\C)c1cccs1 | . | . | . | -6 | -35 | . | 4403
CC(C)N(C(=NCc1ccccc1)NC(=O)c1ccccc1)C(C)C | -2 | -4 | 0 | 1 | -13 | -1.2 | 4164
CCOc1ccccc1NC(=O)c1cccc2c1C(=O)N(C1CCCCC1)C2 | -21 | 7 | 5 | -3 | -16 | 1.6 | 4023
NC(=O)c1ccc(NC(=O)COC(=O)c2ccc(Br)o2)cc1 | 4 | 2 | -5 | . | -31 | 4.1 | 4072
FC(F)(F)Oc1ccc(NC(=S)Nc2ccccc2N2CCOCC2)cc1 | -29 | 7 | -2 | -5 | -33 | 4.6 | 5266

Assay outcomes: PubChem BioAssay, several laboratories
